# D2 PAM = human D2 receptor positive allosteric modulation; 360,000 compounds, 0.23% hits; P14416; DiscoveRx D2 beta-arrestin cells, luminescence, 90 min; 100% = 57 uM dopamine signal; potentiation, % (no concentration beside the values); active = potentiation of 50% or more; inconclusive = 30% to 50%; inactive = 30% or less;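 also: compound concentration not given in the record; tested on top of an EC20 dose of dopamine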
#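 PathHunter D2 cells, attached overnight at 37 deg C, received compound in DMSO plus dopamine at EC20 (50 nM final) for 90 min at 37 deg C. Beta-arrestin recruitment was read as luminescence after 1 h with detection reagent at ambient temperature.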
# gsp antag = antagonizes gsp, the McCune-Albright syndrome mutation; Potency, µM (titrated, usually from 76.9 µM), for inactives: at the top dose activity change, negative = inhibition, most hits filed as inhibitors; AID 624288; 340,000 compounds, 0.4% hits; gsp-mutant cells, cAMP HTRF, 30 min; control for the full effect not named in the record; active = falling curve of any shape with a large fitted effect; inconclusive = falling curve, mostly with a smaller effect; inactive = flat or rising curve; cell line not stated here;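 also: intracellular cAMP measured with PDE inhibitor Ro 20-1724 present during compound exposure; potency is read from the fitted curve at half-maximal effect; % is scaled to controls: 0 for no effect and ±100 for the full control effect; nearly all actives have a fitted effect of over 65% in size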
#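 G418-selected cells were plated in DMEM/10% FBS for 16-24 h at 37C, then treated with compounds plus the PDE inhibitor […] (300 uM solution added) for 30 min at 37C. Intracellular cAMP was measured by HTRF after 30 min lysis at room temperature.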
# TRPV1 potentiator = enhances activation of the human vanilloid receptor TRPV1; potentiation, % at 8.33 µM; TRPV1-expressing cells, Fluo-8 calcium influx, capsaicin EC20 potentiation; host cell line not named in the record; control for the full effect not named in the record; AID 540277; 320,000 compounds, 0.02% hits; active means potentiation above 80%; inconclusive means 30% to 80%; inactive means below 30%; also: 0% is about no effect
# Target sequence (Q8NER1 whole entry, looked up): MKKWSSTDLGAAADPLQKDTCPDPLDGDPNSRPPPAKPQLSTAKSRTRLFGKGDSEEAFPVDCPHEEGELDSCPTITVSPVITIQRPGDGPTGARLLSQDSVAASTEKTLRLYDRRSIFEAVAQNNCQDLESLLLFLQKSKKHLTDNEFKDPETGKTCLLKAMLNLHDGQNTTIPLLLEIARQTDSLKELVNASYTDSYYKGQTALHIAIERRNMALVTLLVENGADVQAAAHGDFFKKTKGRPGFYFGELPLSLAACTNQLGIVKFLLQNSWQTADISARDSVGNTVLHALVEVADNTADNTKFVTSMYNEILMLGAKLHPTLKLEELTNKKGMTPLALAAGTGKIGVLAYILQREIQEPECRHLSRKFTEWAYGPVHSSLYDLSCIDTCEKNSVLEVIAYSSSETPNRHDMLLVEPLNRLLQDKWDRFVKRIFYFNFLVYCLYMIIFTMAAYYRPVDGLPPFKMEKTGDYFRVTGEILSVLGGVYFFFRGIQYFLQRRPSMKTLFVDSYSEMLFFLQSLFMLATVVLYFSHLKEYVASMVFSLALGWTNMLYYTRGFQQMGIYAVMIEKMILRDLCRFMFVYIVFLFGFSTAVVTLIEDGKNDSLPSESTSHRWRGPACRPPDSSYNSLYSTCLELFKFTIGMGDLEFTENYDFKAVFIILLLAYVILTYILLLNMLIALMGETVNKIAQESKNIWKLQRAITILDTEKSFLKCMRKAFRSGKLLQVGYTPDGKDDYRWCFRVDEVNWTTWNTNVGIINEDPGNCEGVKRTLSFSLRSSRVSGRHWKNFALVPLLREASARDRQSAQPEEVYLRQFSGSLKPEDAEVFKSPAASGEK
#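 Fluo-8 calcium influx in TRPV1-expressing cells, kinetic read (ex 480/em 520 nm). Compound added and read 3 min for agonist activity, followed by capsaicin at EC20 final and 2 min further read for enhancement.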
# Menin MLL FP FL = menin-MLL binding inhibition, fluorescein peptide. Fluorescence polarization, fluorescein-MLL peptide displacement from menin. FP activity change, % at 61.4 µM. 290,000 tested, under 10 active; inconclusive = falling polarisation curve, or a change in total fluorescence; inactive = total fluorescence flat and polarisation flat or rising; no compound was filed as active; the % refers to the polarisation; negative = inhibition;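 also: % of control where 0% means no effect; inhibitors lower the polarisation; unlabelled MLL peptide was the positive control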
# ClpP mod = qHTS Assay for Activators of ClpP; purified B. subtilis ClpP, FRET peptide cleavage, 20 min; Potency, µM (titrated, usually from 57.5 µM), without a hit: top-dose activity change, negative = active; 340,000 compounds, 1.9% hits; AID 651965, 2013; active = well fitted falling curve with a large enough effect; inconclusive = small, poorly fitted or top-dose-only effect; inactive = no such curve, though single readings can be large or run the other way; also: potency is read from the fitted curve at half-maximal effect; the source files actives as falling curves though it sought activators and does not explain the sign; nearly all actives have a fitted effect of over 65% in size; many hits overshoot -100%
# Target sequence (P80244 whole entry, looked up): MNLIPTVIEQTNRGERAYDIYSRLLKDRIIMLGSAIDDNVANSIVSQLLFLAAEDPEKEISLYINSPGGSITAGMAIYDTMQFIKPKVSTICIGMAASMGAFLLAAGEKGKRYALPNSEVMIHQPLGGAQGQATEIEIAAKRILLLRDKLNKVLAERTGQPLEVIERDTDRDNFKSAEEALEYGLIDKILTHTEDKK
#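 Buffer: 100 mM Tris/HCl pH8, 100 mM KCl, 0.05% low protease BSA, 2.5% glycerol, 0.01% Tween-20. ClpP 10 microg/mL final; 20 min RT; delta FRET normalized to ADEP and DMSO controls.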
# Sfp inh = inhibitors of Bacillus subtilis Sfp phosphopantetheinyl transferase; Q9F4F7; AID 1490; Biochemical Sfp PPTase activity, qHTS; Potency, µM, inactives show max response, negative = inhibition, hits mostly inhibitors; 310,000 compounds, 3.5% hits; active = well fitted inhibition curve with a large enough effect; inconclusive = small, poorly fitted or top-dose-only effect, or another doubt; inactive = no such curve, though single readings can be large or run the other way;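 also: the enzyme is Sfp with the accession as filed and its product quenches rhodamine fluorescence; potency is read from the fitted curve at half-maximal effect; 0% = enzyme reaction without inhibitor and -100% = no enzyme wells; top concentration of the series not given in the record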
#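 After 15 min at room temperature with compound, 15 nM Sfp received 5 uM rhodamine-CoA plus 12.5 uM BHQ-2-ybbR (50 mM Hepes pH 7.6, 10 mM MgCl2). Rate came from the fluorescence difference over 30 min, ex 525/em 598 nm.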
# gsp ag = agonists of gsp mutant (McCune-Albright syndrome) | 340,000 compounds, 0.13% hits | Potency, µM (series often up to 76.9 µM), inactives show at the highest dose activation (cAMP increase), actives largely listed as activators | gsp mutant cells, cAMP HTRF, 30 min; control for the full effect not named in the record | AID 624287; active = well fitted activation curve with a large enough effect; inconclusive = small, poorly fitted or top-dose-only effect, or another doubt; inactive = no such curve, though single readings can be large or run the other way; cell line not stated here;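 also: phosphodiesterase inhibitor Ro 20-1724 added with compounds to block cAMP breakdown; potency is read from the fitted curve at half-maximal effect; nearly all actives have a fitted effect of over 60% in size; about a fifth of the inactives were tested at one dose only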
#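 Cells stably selected in G418 were plated at 2000/well, grown 16-24 hr, then given compounds in DMSO with the PDE inhibitor […] (300 uM solution added) for 30 min at 37C; cAMP was read by HTRF.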
# Active calls of the source: *; u = inconclusive; x = not tested or not shown; & = joins results of further samples; [ ] = remark or other dose. Compounds as they come, and some 5.1% of all compounds hit somewhere here.
SMILES,D2 PAM,gsp antag,TRPV1 potentiator,Menin MLL FP FL,ClpP mod,Sfp inh,gsp ag
CCCc1cc2c(cc1NC(=O)c1ccccc1Cl)OCO2,-23,2%,2,-0.3,-7.4%,-2%,2%
Cc1ccc(NC(=O)C2C3C=CC4(CN(Cc5cccnc5)C(=O)C24)O3)cc1F (stereo not given),-4,3%,2,3.7,-2.9%,2%,-12%
Cc1nc(N)sc1-c1csc(Nc2cc(N(C)C)ccc2Cl)n1,-4,x,x,x,-0.4%,x,4%
Cc1ccc2nc(N3CCN(C(=O)CCC(=O)O)CC3)nc(-c3ccccc3)c2c1,-2,-16%,11,-6.8,-0.6%,7%,-36%
COc1ccc(NC(=O)c2cc(S(=O)(=O)N3CCOCC3)cn2C)cc1Cl,1,-11%,9,-0.4,1.2%&165%,7%,3%
CC1CCc2c(sc3ncnc(N4CCOCC4)c23)C1 (stereo not given),-5,-13%,-5,1.0,-6.5%,-8%,-14%
CCCNC(=O)CN(C1CCCCC1)S(C)(=O)=O,-14,2%,19,-0.8,0.4%,-4%,-32%[inhibitor]
CCc1ccc(-c2nc(SCC(=O)c3c(N)n(C4CC4)c(=O)[nH]c3=O)n[nH]2)cc1,-4,4%,-3,x,0.3%,x,-30%[inhibitor]
Cc1ccc(OCC(O)Cn2c(N)nc3c2c(=O)n(C)c(=O)n3C)cc1 (stereo not given),-3,-4%,8,-0.4,-1.6%,-5%,1%
CNc1nnc(CSc2nc3ccccc3s2)s1,-24,-10%,4,3.9,0.5%,12%,-56%[inhibitor]
COc1ccc(C2Nc3ccccc3C(=O)N2Cc2ccco2)cc1COc1ccc(F)cc1 (stereo not given),-7,-24%,-10,4.8,25µM*,40µM*,-89%[inhibitor]
CCOC(=O)C1CCCN(CC(O)COCc2ccc3c(c2)OCO3)C1 (stereo not given),-16,11%,-31,-6.1,x,-12%,11%[15.4 µM]
O=C1c2ccccc2C(=O)N1CCc1c[nH]c2ccc(O)cc12,-2,-11%,-1,1.7,x,-4%,0%[15.4 µM]
O=C(CN1C(=O)NC2(CCCC2)C1=O)Nc1cc(Cl)ccc1N1CCCC1,1,0%,-3,5.0,-5.7%,1%,-8%
C=CCn1c(SCC(=O)N2CC(C)OC(C)C2)nnc1-c1ccncc1 (stereo not given),-1,-3%,-3,x,-12%,x,-12%
CCOCc1nnc(NC(=O)c2ccc(NC(C)=O)cc2)s1,-4,-13%,5,-0.8,-1.2%,-8%,-25%
C[C@H](NC(=O)C(c1ccccc1)c1ccccc1)c1ccccc1,-4,-8%,-25,4.0,x,-2%,9%
COc1cccc(CSc2nnc(C(F)(F)F)n2Cc2ccc(F)cc2)c1,-12,-22%,x,15,0.4%,10%,-33%
N#CCSc1ncnc2ccccc12,-9,17%,-5,-0.2,-1.1%,18%,u
Clc1ccc2ncc(-c3nnnn3-c3ccccc3)c(-c3ccccc3)c2c1,7,-11%,-3,-0.1,-4.8%,u,0%

# Whole records from above. Screens in order: D2 PAM | gsp antag | TRPV1 potentiator | Menin MLL FP FL | ClpP mod | Sfp inh | gsp ag
# Cc1nc(N)sc1-c1csc(Nc2cc(N(C)C)ccc2Cl)n1 is listed as -4 | x | x | x | -0.4% | x | 4%
# CNc1nnc(CSc2nc3ccccc3s2)s1 is listed as -24 | -10% | 4 | 3.9 | 0.5% | 12% | -56%[inhibitor]

# Continued.
SMILES,D2 PAM,gsp antag,TRPV1 potentiator,Menin MLL FP FL,ClpP mod,Sfp inh,gsp ag
COc1ccc(-c2noc(CSc3nc4sc(C)c(C)c4c(=O)n3-c3ccccc3)n2)cc1OC,-11,2%,2,2.1,-1.1%,u,-2%
NC(=O)c1ccc[n+](CC(=O)c2cccc([N+](=O)[O-])c2)c1,-5,3%,5,6.4,-0.4%,20%,u
COc1ccc(OCC(=O)Nc2ccncc2)cc1,-9,3%,-20,9.5,-0.1%,10%,-16%
O=C(Nc1ccc(S(=O)(=O)Nc2nccs2)cc1)c1cccc(F)c1,-11,-31%,11,x,x,7%,10%[15.4 µM]
CN(CCOC(=O)c1ccccc1)Cc1ccccc1,-29,3%,13,0.9,-0.3%,22%,11%
Cc1nc2cc3ccccc3cc2c(=O)[nH]1,-19,10%,2,7.4,31%,7%,3%
CCN(Cc1ccccc1)c1ccc(/C=N/NC(=O)c2cccc(S(=O)(=O)N3CCOCC3)c2)cc1,0,9%,21,13,-9.5%,7%,-1%
COc1ccccc1NC(=O)CSc1nnc(C2CCCCC2)o1,-8,9%,-5,2.2,2.8%,6%,20%
CCOc1ccc(CC(=O)NCC2(N3CCCCC3)CCCCC2)cc1,-9,11%,1,-1.4,x,18%,-6%[15.4 µM]
COc1cc2c(cc1OC)CN(C(=O)Cn1ccccc1=O)CC2,-27,-1%,0,-1.0,-2.9%,2%,x
CC(C)C(CC(=O)NCc1ccco1)c1ccco1 (stereo not given),6,2%,-24,-1.5,-1.6%,28µM*,9%
COc1ccc(-n2nc(C(=O)Nc3nc4ccc(OC)cc4s3)c3ccccc3c2=O)c(OC)c1,x,x,-6,0.0,x,10%,x
COCCn1c(C)cc(C(=O)COC(=O)CCc2ccc(S(=O)(=O)N3CCOCC3)cc2)c1C,-6,-7%,1,-2.3,2.0%,-16%,-16%
COc1ccc(CC(=O)OCC(=O)NC2CCCCCC2)cc1OC,-66,4%,-30,x,x,x,52%[15.4 µM]
O=C(CCc1ccccc1)Nc1cccc(-c2nnc(-c3ccco3)o2)c1,2,3%,19,0.8,u,18%,2%
COc1ccc(NC(=O)C/C(C)=N/NC(=O)c2ccccn2)c(OC)c1,-5,9%,-10,-1.0,x,-19%,-45%[inhibitor]
CC1(CCc2ccc3c(c2)OCO3)NC(=O)c2ccccc2N1 (stereo not given),11,-3%,6,1.1,28µM*,16%,9%
COc1ccc(C(=O)CCC(=O)NC2=NCCS2)cc1,-3,-3%,-7,x,-1.0%,-11%,-14%
CC(C)NC(=O)Nc1ccc2c(c1)C(=O)N([C@H](C)CO)C[C@H](C)[C@@H](CN(C)Cc1ccc(C(F)(F)F)cc1)OCCCC[C@@H](C)O2,12,x,x,x,-9.5%,x,-39%[inhibitor]
Cc1cccc(Cc2cnc(NC(=O)c3ccc(C)o3)s2)c1,1,-10%,25,4.7,-13%,17%,3%
CC(NC(=O)c1ccc2c(c1)OCCO2)c1ccc(S(N)(=O)=O)cc1 (stereo not given),3,12%,-4,-0.4,x,14%,0%
COC(=O)c1scc(C)c1NC(=O)Cc1ccccc1,-1,-11%,13,3.1,-2.1%,18%,32%
CC(=O)COC(=O)c1cccc(N2C(=O)C3C4C=CC(C4)C3C2=O)c1 (stereo not given),0,7%,1,0.0,2.7%,8%,9%
CC(=O)c1cc2c(cc1NC(=O)CSc1ncccn1)OCO2,-17,x,x,x,-22%,x,1%
COC(=O)CSC1=C(C#N)C(c2ccccc2F)CC(=O)N1 (stereo not given),-1,4%,-1,2.3,1.8%,u,u
O=C(CCn1c(=O)sc2ccccc21)Nc1nccs1,-18,4%,23,-0.7,-0.6%,14%,2%
COCCn1nnnc1C(CC(C)C)N1CCN(C(=O)c2ccco2)CC1 (stereo not given),-12,10%,-3,0.5,1.3%,10%,-4%
Cc1ccc(N(C(=O)CNC(=O)c2ccco2)C(C(=O)NC2CCCC2)c2cccnc2)c(C)c1 (stereo not given),2,7%,-2,x,x,13%,-9%
CCCCCCNC(=O)O[C@H]1C[C@H](C(=O)OC)[C@H](C(=O)OC)C2CN(S(=O)(=O)c3ccc(C)cc3)C[C@@]21O (stereo not given in full),-1,x,x,x,1.7%,x,-67%[inhibitor]
CC(Nc1c[nH]c(=O)[nH]c1=O)c1ccccc1 (stereo not given),-6,11%,-12,-5.0,x,12%,-43%[inhibitor]
CC(C)(C)c1ccc(OCC(=O)NCCN2CCOCC2)cc1,-8,4%,-14,5.4,x,-20%,4%
COc1ccc(CCN2C(=O)CN(Cc3ccccc3)CC2=O)cc1OC,-6,0%,2,0.1,-0.9%,-5%,28%
CC(C)C[C@@H](CSc1ccc(Br)cc1)N1CCN(C)CCC1=O,-10,13%,-1,6.7,-3.1%,-7%,x

# A draw from above in order of count of non-hydrogen atoms, low to high:
SMILES,D2 PAM,gsp antag,TRPV1 potentiator,Menin MLL FP FL,ClpP mod,Sfp inh,gsp ag
CC(Nc1c[nH]c(=O)[nH]c1=O)c1ccccc1 (stereo not given),-6,11%,-12,-5.0,x,12%,-43%[inhibitor]
COC(=O)c1scc(C)c1NC(=O)Cc1ccccc1,-1,-11%,13,3.1,-2.1%,18%,32%
COC(=O)CSC1=C(C#N)C(c2ccccc2F)CC(=O)N1 (stereo not given),-1,4%,-1,2.3,1.8%,u,u
CC(C)C[C@@H](CSc1ccc(Br)cc1)N1CCN(C)CCC1=O,-10,13%,-1,6.7,-3.1%,-7%,x
CC(=O)COC(=O)c1cccc(N2C(=O)C3C4C=CC(C4)C3C2=O)c1 (stereo not given),0,7%,1,0.0,2.7%,8%,9%
COCCn1nnnc1C(CC(C)C)N1CCN(C(=O)c2ccco2)CC1 (stereo not given),-12,10%,-3,0.5,1.3%,10%,-4%
Cc1ccc(N(C(=O)CNC(=O)c2ccco2)C(C(=O)NC2CCCC2)c2cccnc2)c(C)c1 (stereo not given),2,7%,-2,x,x,13%,-9%
CCCCCCNC(=O)O[C@H]1C[C@H](C(=O)OC)[C@H](C(=O)OC)C2CN(S(=O)(=O)c3ccc(C)cc3)C[C@@]21O (stereo not given in full),-1,x,x,x,1.7%,x,-67%[inhibitor]
